Screens from PubChem BioAssay.
CSC inhib = cancer stem cell inhibition | cancer stem cell-like cells viability, luminescence | inhibition, % at 7.5 µM | 300,000 tested, 1.1% active;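 active means mean at 75% or more and at least half the replicates too; inconclusive means mean and replicates disagree; tested in HMLE shEcad cells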;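 further: 0% = median of negative and 100% = median of positive control wells; the first replicate is given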
Yeast UUG start = modulators of start codon recognition fidelity in yeast | S. cerevisiae UUG-firefly luciferase reporter, luminescence/redox ratio | activity score, % at 18.7 µM | 350,000 tested, 0.13% active | AID 602363;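 active means replicate mean at a twofold rise or more, about +100% in these data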;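 further: firefly luciferase made from a UUG start codon reports start codon fidelity; reporter light over untreated wells divided by growth signal over untreated wells; some hits fall short of that in this replicate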
PABP FP inh = PABP-poly(A) binding inhibition | PABP-poly(A) RNA binding, fluorescence polarization | 290,000 tested, 1% active | P11940 | inhibition, % at 35 µM;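 active means 50% or more with normal probe brightness, or confirmed in later tests; inconclusive means above 50% with abnormal brightness, or retests that disagree; inactive means below 50% or failed in later tests; about a fifth of its hits are not listed in these tables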;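 further: calls also rest on retests at 20 µM and on dose response follow-up; controls were probe without protein and protein plus probe with vehicle; some compounds called inactive have numbers as strong as hits; many hits fall short of the cut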
eIF4H FP inh = inhibitors of RNA binding by human eIF4H. Q15056. inhibition, % at 35 µM. eIF4H fluorescence polarization binding assay. 290,000 tested, 0.94% active;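 active means 50% or more with normal probe brightness, or confirmed in later tests; inconclusive means above 50% with abnormal brightness, or retests that disagree; inactive means below 50% or failed in later tests; about a fifth of its hits are not listed in these tables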;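 further: calls also rest on retests at 20 µM and on dose response follow-up; 0% = protein and probe with vehicle and 100% = probe without protein; strong numbers were not always called active; many hits fall short of the cut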
MT1-MMP act inh = MT1-MMP (human) activation inhibition; P50281; HT1080 RFP-PRO-GFP cells, GFP/RFP ratio fluorescence, overnight; percent of plate control window, DMSO zero; GFP/RFP ratio change, % at 20 µM; 360,000 tested, 0.061% active;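 active means GFP/RFP ratio change of at least 30% with cell ATP level not reduced by more than half and red fluorescence within 50% of control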; further: strong numbers were not always called active
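Assay system: HT1080 RFP-PRO-GFP cells. Benchmarks: DMSO vehicle wells and RFP-L50D-GFP reporter cell wells. Times: overnight cell settling, then overnight compound exposure, 37 °C, 5% CO2. Compound: 20 µM single dose, 1% DMSO. Read-out basis: GFP/RFP fluorescence ratio.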
Rce1 inhib = inhibitors of yeast Ras-converting enzyme; Q03530; yeast membranes, quenched prenylated peptide cleavage fluorescence; calls only; 290,000 tested, 0.27% active;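 active means fall in fluorescence gain of 50% or more versus controls, with final raw signal at or below 3038400; inconclusive means same 50% fall but final raw signal above 3038400; inactive means fall in fluorescence gain under 50%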;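 further: plate controls were neutral control wells for no effect and wells lacking membranes for full effect; tested at 10 µM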
Target sequence (Q03530 whole entry, looked up): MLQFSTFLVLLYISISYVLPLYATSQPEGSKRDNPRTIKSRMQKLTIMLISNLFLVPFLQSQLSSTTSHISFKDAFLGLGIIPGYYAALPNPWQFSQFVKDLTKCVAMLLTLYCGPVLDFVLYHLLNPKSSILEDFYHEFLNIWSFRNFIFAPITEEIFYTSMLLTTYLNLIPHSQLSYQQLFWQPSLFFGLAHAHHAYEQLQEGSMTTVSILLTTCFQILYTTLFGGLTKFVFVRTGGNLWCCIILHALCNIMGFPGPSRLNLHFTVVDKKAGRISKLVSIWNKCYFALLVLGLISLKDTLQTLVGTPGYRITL
Env fusion inh = HIV envelope-mediated fusion inhibition. inhibition, % at 12.3 µM. AID 651610. 360,000 tested, 1.1% active. HeLa-JRFL Env/CEM21 cell fusion, luciferase;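 active means mean replicate inhibition score of at least 50 and every replicate individually at or above 50; inconclusive means only one of the two criteria met; inactive means mean below 50 and not all replicates reaching 50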;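 further: 0% = plate neutral controls and 100% = maraviroc near 300 nM; one replicate is shown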
eIF4H FP inh retest = further read-out of eIF4H FP inh, marked with its call; inhibition, %; compound at 20 µM; confirmation average;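 mean of two retest wells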
PABP FP inh retest = recorded beside PABP FP inh, whose call it bears; inhibition, %; compound at 20 µM; confirmation repeats;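 mean of two retest wells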
MT1-MMP act inh RFP = also measured in MT1-MMP act inh; calls as there; RFP signal change, %; measured here: RFP expression control read;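 0 = vehicle wells; hits needed this value within 50% of zero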
The depositor's hits bear a star; i = inactive; ? = inconclusive; · = not tested or not shown; & = joins results of further samples. A portion of the library, so the mix of outcomes need not match the whole.

SMILES	CSC inhib	Yeast UUG start	PABP FP inh	eIF4H FP inh	MT1-MMP act inh	MT1-MMP act inh RFP	Rce1 inhib	Env fusion inh	others
O=C1CCCC2=C1Sc1ccc(Cl)cc1N2	-20.1	·	?	?	-24.9	-3.1	i	-10.8
Cc1ccc(S(=O)(=O)N2CCCCC2)cc1NC(=O)CSc1nc(N)cc(=O)[nH]1	-23.4	-14.4	·	·	0.9	0.5	·	16.3
CCOC(=O)N1CCN(Cc2c(NC(=O)c3ccco3)sc(C)c2C)CC1	-7.0	·	-14.0	-3.4	-3.4	-0.7	i	6.2
O=C(NCc1ccncc1)Nc1ccc(F)cc1	-6.6	-12.9	-10.2	2.9	0.8	2.9	i	·
Nc1nc(CN2CCN(C(=O)c3ccco3)CC2)nc(Nc2cccc(Cl)c2)n1	-12.7	·	6.8	-0.9	3.0	-3.3	i	2.0
COCCNC(=O)C(c1ccc(C)cc1)N(C(=O)C(=O)NC1CCCC1)c1ccc2c(c1)OCCO2 (stereo not given)	-8.9	·	14.3	0.4	0.4	4.2	i	-14.8
CC(OC(=O)CCCOc1ccccc1)C(=O)Nc1ccc(Cl)cn1 (stereo not given)	-11.0	-3.8	·	·	0.6	0.2	i	·
CN(CC(=O)Nc1sccc1C#N)C1CCCCC1	11.9	-18.0	8.0	92.2	-7.7	2.9	i	·	eIF4H FP inh retest=0.4;PABP FP inh retest=0.5
N#C/C(=C(/O)COC(=O)c1ccc(C#N)cc1)c1nc2ccccc2s1	-0.3	-14.0	7.7	16.9	-3.6	8.7	i	-7.9
CCOc1ccc2oc(C(=O)NCc3ccccc3CN3CCCC3)c(C)c2c1	10.1	-14.1	·	·	0.3	-4.4	·	14.3
CC(C)(C)SCCNC(=O)/C=C/c1ccccc1	-1.5	-5.6	5.6	0.6	6.8	1.7	i	-25.5
CCCC12CN3CC(CCC)(CN(C1)C3c1ccco1)C2=O (stereo not given)	-17.9	9.6	5.3	-8.1	0.0	0.1	i	7.5

3 compounds from above, sorted by length of the SMILES, highest first:
SMILES	CSC inhib	Yeast UUG start	PABP FP inh	eIF4H FP inh	MT1-MMP act inh	MT1-MMP act inh RFP	Rce1 inhib	Env fusion inh	others
Cc1ccc(S(=O)(=O)N2CCCCC2)cc1NC(=O)CSc1nc(N)cc(=O)[nH]1	-23.4	-14.4	·	·	0.9	0.5	·	16.3
Nc1nc(CN2CCN(C(=O)c3ccco3)CC2)nc(Nc2cccc(Cl)c2)n1	-12.7	·	6.8	-0.9	3.0	-3.3	i	2.0
CCOc1ccc2oc(C(=O)NCc3ccccc3CN3CCCC3)c(C)c2c1	10.1	-14.1	·	·	0.3	-4.4	·	14.3

Additional results follow.
SMILES	CSC inhib	Yeast UUG start	PABP FP inh	eIF4H FP inh	MT1-MMP act inh	MT1-MMP act inh RFP	Rce1 inhib	Env fusion inh	others
CN1CCc2c(n(CC(O)CN3C(=O)c4ccccc4S3(=O)=O)c3ccccc23)C1=O (stereo not given)	·	4.3	-2.9	-2.2	4.3	4.2	·	·
CCOc1cc(CN2CCc3c([nH]c4ccccc34)C2)ccc1OC	-1.7	6.9	5.6	6.5	-2.5	2.8	i	10.3
Cc1ccc(CN2CCC[C@]3(N[C@H](c4ccc(C)cc4)[C@@H]4C(=O)N(C)C(=O)[C@@H]43)C2=O)cc1	·	2.2	·	·	6.7	5.5	·	11.1
O=C(NCC1CCCCC1)c1csc([C@@H]2C[C@H](O)[C@@H](CO)O2)n1	·	-20.6	·	·	1.1	5.1	·	2.0
CCn1cc(C(=O)N[C@@H](C)C(=O)NCCO)c(=O)c2cc3c(cc21)OCO3	-23.4	-0.3	-3.2	3.9	4.2	7.2	i	-24.2
COc1ccc(Cl)cc1NC(=O)c1cnc2n(c1=O)CCS2	-5.4	-6.6	-1.9	-0.6	-1.5	2.3	i	-14.2
Cc1ccc(/C=C/C(=O)NCCc2cccc(Cl)c2)o1	22.5	-31.0	-2.6	-2.8	-3.3	0.7	i	-1.9
CC1CCCN(S(=O)(=O)c2ccc(Cl)s2)C1 (stereo not given)	-16.3	-15.3	-3.7	-4.2	-1.2	0.6	·	7.7
COC(CNC(=O)c1ccc2nc(-c3cccs3)c(-c3cccs3)nc2c1)OC	·	4.7	-6.2	53.2	-4.8	-5.3	i	-12.6	eIF4H FP inh retest=-16.1;PABP FP inh retest=6.8
OC(CNCc1cccc(Br)c1)c1ccccc1 (stereo not given)	-5.9	-9.5	-0.7	5.9	3.3	6.0	i	4.5
CC(C)C(NS(=O)(=O)c1cc(C(=O)O)ccc1Cl)C(=O)O (stereo not given)	-14.6	-13.1	-4.9	0.8	4.6	6.5	i	-8.1
O=C(c1nnc(Cc2ccc(Cl)cc2)o1)N1CCc2ccccc2C1	2.1	-14.2	-10.7	-10.8	2.3	4.1	i	8.0
COc1ccc(-c2nc3ccc([N+](=O)[O-])cc3[nH]2)cc1	-4.3	·	1.8	-3.9	3.5	-9.0	i	-203.1
COc1cccc(C(O)c2nc(-c3cccc(C(F)(F)F)c3)cs2)c1 (stereo not given)	·	-9.5	·	·	3.5	2.8	·	2.6
O=C(NCCCn1ccnc1)C(=O)c1c[nH]c2ccccc12	-14.8	-14.6	10.6	-5.3	0.1	5.0	i	-3.3
Cc1ccc(S(=O)(=O)c2c(COC(=O)c3ccccc3Cl)c(-c3ccccc3)nn2C)cc1	·	0.2	2.9	-6.1	-10.6	-13.0	i	·
Cc1onc(-c2c(Cl)cccc2Cl)c1C(=O)c1c[nH]c(C(=O)NCCCN2CCOCC2)c1	17.6	-8.3	-7.4	-16.1	-3.0	-7.9	i	-0.1
CCSc1ccc(-c2cccc([N+](=O)[O-])c2)nn1	-20.4	-22.3	-2.2	3.0	-6.3	0.2	i	-3.3
COc1ccc(O)c(-c2c(-c3ccc(Cl)cc3)n[nH]c2C)c1	·	-17.5	-2.0	2.4	0.1	5.4	·	·
CC(C)(C)C(=O)Oc1ccc2cc(-c3ccc4ccccc4n3)c(=O)oc2c1	24.2	6.6	-3.2	33.0	-145.8	3.1	i	·
Cc1ccc(S(=O)(=O)Nc2ccc(N(C)C)cc2)cc1	-7.8	·	2.1	-3.8	2.5	-3.3	i	18.2
CC(C)N(C(=O)Cn1cc(S(=O)(=O)CC(=O)Nc2ccccc2)c2ccccc21)C(C)C	14.6	12.4	-2.8	-16.1	-5.1	-0.3	i	·
COc1ccccc1NC(=O)CCN1C(=O)c2ccccc2C1=O	-7.4	1.6	-6.0	-9.0	2.3	3.2	i	4.2
CN(CC1CCCN(CCc2ccc(F)cc2)C1)C(=O)CCC(F)(F)F (stereo not given)	5.5	-8.0	-5.7	-9.3	-0.9	-1.0	i	10.4
O=C(CSc1ccccc1C(=O)O)NC1CCCCCC1	-4.7	-11.5	-6.0	3.1	3.1	6.2	i	3.4
Cc1ccc(C)c(Cn2c(CN(C)Cc3ccccc3)nc3c2c(=O)n(C)c(=O)n3C)c1	2.7	3.8	-14.9	6.1	-2.4	-9.7	i	·
O=C(NCc1ccccn1)C1CCN(C2CCN(Cc3cccc(F)c3)CC2)CC1	·	-13.8	·	·	3.3	6.1	·	16.3
Cc1ccc(SCCNC(=S)Nc2ccc(C)cc2C)cc1	7.3	·	0.4	2.4	-0.2	0.8	i	5.9
Cc1ccc(S(=O)(=O)N2CCN(C(=O)CSc3nnc(-c4ccco4)o3)CC2)cc1	-24.1	8.8	-3.0	-4.5	-0.7	-2.0	i	13.8
CC(NC(=O)c1csc2ccccc12)C1CCCO1 (stereo not given)	-11.5	·	-4.5	-10.5	5.3	8.2	i	·
CCOc1ccc(NS(=O)(=O)c2ccc(C(=O)NCC(c3ccco3)N(C)C)cc2)cc1 (stereo not given)	-9.3	-7.0	·	·	-3.5	-3.6	i	10.0
CCN(C[C@H]1N[C@@](C)(C(=O)OC)[C@H]2C(=O)N(C)C(=O)[C@@H]12)C(=O)Nc1ccc(F)cc1	·	-5.1	·	·	4.9	8.0	·	-39.2
Cc1c(N)cccc1-c1nc2ccccc2[nH]1	-27.1	-26.0	2.0	4.7	1.0	-0.4	i	-20.9
FC(F)(F)c1cccc(NC(=S)N2CCCC2)c1	·	-1.4	-1.3	-1.6	-0.5	1.9	i	·
O=C(Cc1cccs1)NCCSc1c(-c2ccc(Cl)cc2)[nH]c2ccccc12	71.2	-3.2	15.8	-1.8	-13.3	-23.8	i	32.0
CCC/C=C(\CCC)C(NC(=O)Cc1ccccc1)c1ccc(C(=O)OC)cc1 (stereo not given)	35.4	2.9	-0.5	-6.4	-22.9	-17.3	i	·
Cc1cc(Br)ccc1NC(=S)Nc1cccc([N+](=O)[O-])c1	-2.5	·	8.1	1.0	-7.5	-7.8	i	-24.4
CC1CC(C)CN(S(=O)(=O)c2cccc(C(=O)N3C(=O)c4cccc(N)c4C3=O)c2)C1 (stereo not given)	-0.5	3.4	15.6	8.4	1.2	-1.5	i	-40.3
Oc1ccc(N=Nc2ccc3ccccc3c2)cc1	110.5*	-48.1	16.2	-5.4	1.7	-8.6	i	-135.3
CCOC(=O)/C=C/C(=O)Nc1ccccc1C(=O)NC1CCCCC1	1.0	-1.9	0.0	5.5	0.0	2.7	i	26.3
CN(C)C(CNC(=O)c1cc(S(=O)(=O)N(C)Cc2ccccc2)ccc1Cl)c1ccco1 (stereo not given)	3.5	4.2	·	·	-2.2	-12.7	i	·
COc1ccc(/C=C/c2nc(S(=O)(=O)c3ccccc3)c(N(C)C)o2)cc1OC	-12.7	-1.8	40.8	-1.1	0.2	-3.9	i	1.6
COC(=O)c1cn(C(=O)c2cc(C)cc(C)c2)c2ccccc12	2.5	-13.5	9.4	-9.8	-0.3	-3.0	i	1.4
OC(CN1CCN(c2ccccc2)CC1)c1c[nH]c2ccccc12 (stereo not given)	-0.9	-4.5	-3.0	2.0	-0.4	6.6	i	·
O=C(O)CN1C(=O)/C(=C2\SC(=S)N(C(Cc3ccccc3)C(=O)O)C2=O)c2ccccc21 (stereo not given)	-10.9	33.8	18.5	4.9	3.2	3.1	i	8.9
CCNC(=O)Nc1ccc(OC)cc1OC	-7.3	·	15.3	-11.1	3.6	0.4	i	-3.7
COc1ccc(-c2cc(C(=O)N/N=C/c3sccc3C)c3ccccc3n2)c(OC)c1	48.7	-7.2	0.3	-4.3	-4.0	-6.0	i	·
Cc1ccccc1NC(=S)N(Cc1cccnc1)Cc1ccco1	-2.7	-21.4	-7.0	-6.8	-2.9	0.8	i	27.3
Cc1ccc(S(=O)(=O)N2C[C@H]3n4c(=O)ccc(=O)n4C[C@H](OC(=O)Nc4cccs4)[C@@]3(O)C2)cc1	·	-10.4	·	·	-2.7	-1.7	·	25.7
O=C(NCC(c1ccco1)N1CCCC1)c1ccccc1F (stereo not given)	-4.0	-25.1	-13.9	-6.8	-2.9	2.0	i	7.1
COc1ccc(/C=N/n2cnnc2)cc1COc1ccccn1	5.8	3.0	-3.4	0.8	2.5	1.9	i	-14.4
Nn1c(SCC(=O)NCC2CCCO2)nnc1-c1cc(Cl)ccc1Cl (stereo not given)	·	-23.3	·	·	3.1	2.1	·	-1.5
O=C(NC(=S)N1CCc2ccccc21)c1ccccc1	·	·	16.5	-2.7	5.5	0.6	i	-23.5
C[C@H](CO)N1C[C@H](C)[C@@H](CN(C)Cc2ccc(-c3ccccc3)cc2)Oc2c(NC(=O)Nc3ccc(C(F)(F)F)cc3)cccc2C1=O	·	-15.1&-9.8	·	·	2.7	-4.9	·	-18.3
